Bioassay records as filed in PubChem.
TrxR1 substrate: rat thioredoxin reductase 1 substrate activity; O89049; purified TrxR1 substrate turnover, NADPH consumption readout; Potency, µM (titrated, usually from 114 µM), inactives show at the highest dose activity change, negative = substrate turnover; 390,000 tested, 0.01% active; AID 588456; note: % is set by controls: 0 for no effect and ±100 for the full control effect; nearly all actives have a fitted effect of over 50% in size
Target sequence (O89049 whole entry, looked up): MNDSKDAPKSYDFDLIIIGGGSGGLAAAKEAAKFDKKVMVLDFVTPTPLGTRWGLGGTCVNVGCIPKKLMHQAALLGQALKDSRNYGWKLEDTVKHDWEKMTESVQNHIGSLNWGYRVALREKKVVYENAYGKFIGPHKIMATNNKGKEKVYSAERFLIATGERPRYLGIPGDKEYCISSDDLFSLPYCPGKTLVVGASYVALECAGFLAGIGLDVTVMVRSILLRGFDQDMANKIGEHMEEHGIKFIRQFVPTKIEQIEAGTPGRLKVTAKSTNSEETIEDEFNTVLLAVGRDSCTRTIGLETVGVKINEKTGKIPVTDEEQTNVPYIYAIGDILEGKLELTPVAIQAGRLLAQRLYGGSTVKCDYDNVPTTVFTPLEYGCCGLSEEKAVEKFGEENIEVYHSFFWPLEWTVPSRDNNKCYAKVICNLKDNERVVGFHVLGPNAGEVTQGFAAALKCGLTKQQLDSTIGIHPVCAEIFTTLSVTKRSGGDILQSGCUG
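Rat TrxR1, dispensed at 90 nM, was prereduced with 400 uM NADPH (final) for 5 min at ~22 deg C, then incubated with compound 15 min before 400 uM selenite. A first-read NADPH fluorescence drop versus no-compound background flagged substrates.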
Vif-APOBEC3G blk: Vif-A3G binding inhibition; HeLa A3G-eYFP + Vif (tagged APOBEC3G with the HIV-1 protein that degrades it), YFP fluorescence, overnight; 410,000 tested, 0.076% active; Q9HC16; Potency, µM (doses to about 46.1 µM), for inactives: at the highest dose activity, negative = active, actives largely listed as inhibitors;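 note: % is set by controls: 0 for no effect and ±100 for the full control effect; nearly all actives have a fitted effect of over 60% in size; hits raise eYFP signal because A3G escapes Vif-driven loss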
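HeLa cells stably expressing Vif and C-terminally eYFP-tagged A3G, seeded overnight at 37 deg C, then exposed to compound by pintool overnight at 37 deg C. Rise in yellow fluorescence (Ex 488/Em 500-530, Acumen) marks blocked Vif-driven A3G degradation.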
12-LOX inh: blocks human arachidonate 12S-lipoxygenase; Potency, µM (titrated, usually from 108 µM), without a hit: top-dose activity change, negative = inhibition, most hits filed as inhibitors; AID 1671190; 580,000 tested, 1.1% active; purified 12hLO, xylenol orange hydroperoxide absorbance; note: % is set by controls: 0 for no effect and ±100 for the full control effect
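Purified human 12hLO at 150 nM in 25 mM Hepes, 0.01% Triton X-100, pH 7.0, preincubated 15 min at room temperature with compound. Reaction started with 40 uM arachidonic acid, 30 min at room temperature. Hydroperoxide measured by Fe-xylenol orange, 573/405 nm absorbance ratio.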
IDH1 R132H inh: blocks human mutant IDH1 R132H enzyme; IDH1-R132H enzyme, NADPH consumption, diaphorase/resazurin fluorescence; Potency, µM (highest dose often 76.6 µM), without a hit: at the highest dose activity change, negative = inhibition, actives largely listed as inhibitors; AID 602179; 390,000 tested, 0.093% active; note: % is set by controls: 0 for no effect and ±100 for the full control effect; nearly all actives have a fitted effect of over 65% in size
Target sequence (O75874 whole entry R132H, stated change not applied): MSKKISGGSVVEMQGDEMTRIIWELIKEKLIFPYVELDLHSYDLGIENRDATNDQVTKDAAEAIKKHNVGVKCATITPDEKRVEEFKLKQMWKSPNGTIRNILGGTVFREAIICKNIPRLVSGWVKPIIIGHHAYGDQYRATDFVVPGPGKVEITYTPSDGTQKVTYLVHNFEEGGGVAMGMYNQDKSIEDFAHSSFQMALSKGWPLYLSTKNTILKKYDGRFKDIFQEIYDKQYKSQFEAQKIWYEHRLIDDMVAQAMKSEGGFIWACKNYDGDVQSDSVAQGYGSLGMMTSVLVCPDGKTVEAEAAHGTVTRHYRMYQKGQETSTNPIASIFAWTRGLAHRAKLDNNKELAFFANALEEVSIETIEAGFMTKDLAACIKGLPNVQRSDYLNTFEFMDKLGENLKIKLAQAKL
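IDH1-R132H (0.5 ug/mL dispensed) in pH 7.5 Tris buffer was preincubated 30 min with compound, then given a substrate mix of 0.016 mM NADPH and 2 mM alpha-KG for 80 min at room temperature; remaining NADPH was read by diaphorase/resazurin fluorescence.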
RXFP1 agonist: agonists of human relaxin receptor RXFP1; 370,000 tested, 0.3% active; Potency, µM (highest dose often 57.5 µM), inactives show at the highest dose activation, actives largely listed as activators; HEK293T-RXFP1 cAMP TR-FRET, 30 min; response scale: percent of porcine relaxin response, buffer zero; AID 2676; Q9HBX9; note: % is set by controls: 0 for no effect and ±100 for the full control effect; nearly all actives have a fitted effect of over 60% in size; many of its hits are not listed in these tables
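HEK293 cells stably expressing RXFP1, treated 30 min at 37C with compounds plus PDE4 inhibitor Ro 20174; cAMP measured by HTRF TR-FRET. Normalized to buffer and 29 nM porcine relaxin; EC50 by Hill fit.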
rTrxR1 inhibitor: blocks rat thioredoxin reductase 1; O89049; recombinant rTrxR1, NADPH fluorescence consumption, selenite substrate; Potency, µM (series often up to 114 µM), without a hit: at the top dose activity change, negative = inhibition, hits mostly inhibitors; 390,000 tested, 1% active; AID 588453; note: % is set by controls: 0 for no effect and ±100 for the full control effect; nearly all actives have a fitted effect of over 65% in size
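Rat TrxR1 (90 nM in the dispensed reagent) was pre-reduced with 400 uM NADPH for 5 min at room temperature, then incubated with compound for 15 min. After 400 uM selenite was added, NADPH fluorescence (Ex 340/Em 450 nm) was followed for 8 min.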
Vif-APOBEC3F blk: blocks the Vif interaction with APOBEC3F | HeLa A3F-eYFP + Vif (tagged APOBEC3F with the HIV-1 protein that degrades it), YFP fluorescence increase | Potency, µM (series often up to 46.1 µM), for the others: top-dose activity, negative = active | 390,000 tested, 0.2% active; note: % of control where 0% means no effect; nearly all actives have a fitted effect of over 65% in size
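HeLa cells stably expressing A3F-eYFP plus Vif, plated and incubated overnight at 37 deg C, then exposed to compounds overnight at 37 deg C. Blocked degradation read as raised yellow fluorescence (Ex 488/Em 500-530).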
RGS4 inhibitor: human RGS4 inhibition | P49798 | Transcreener GDP fluorescence polarization, RGS4-accelerated GTP hydrolysis | Potency, µM (top dose mostly 114 µM), for inactives: top-dose activity change, negative = inhibition, most hits filed as inhibitors | 390,000 tested, 0.039% active | AID 504845; note: % is set by controls: 0 for no effect and ±100 for the full control effect; nearly all actives have a fitted effect of over 75% in size; some results filed as inactive show a strong effect at the top dose
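MLSMR compounds (23 nl, pin-transferred) preincubated 10 min at room temperature with a 500nM (2x) first reagent, then RGS4 at 900nM (2x) plus Transcreener GDP mix added; fluorescence polarization (620/688 nm) read before and after 90 min at 30 °C.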
* = called active by the depositor; u = inconclusive; x = not tested or not shown; [ ] = remark or other dose. Calls come from the whole dose curve; as a rule, active = well fitted curve in the direction sought with a large enough effect; inconclusive = small, poorly fitted or top-dose-only effect, or another doubt; inactive = no such curve, though single readings can be large; an effect the other way counts as inactive or inconclusive. Potency is the fitted concentration of half-maximal effect. The list is partial; count on the stated rates, not on these rows.

canonical_smiles,TrxR1 substrate,Vif-APOBEC3G blk,12-LOX inh,IDH1 R132H inh,RXFP1 agonist,rTrxR1 inhibitor,Vif-APOBEC3F blk,RGS4 inhibitor
O=C(Nc1ccc(S(=O)(=O)N2CCOCC2)cc1)c1ccc(Cl)s1,0%,1%,6%,-3%,-0.1%,16%,0%,-1%
Nc1c(C(=O)c2ccccc2)sc2nsc(SCCN3CCCC3)c12,7%[57.1 µM],u,43%[activator],1%,0.6%,9%[11.4 µM],u,-14%
COc1ccccc1N1C(=O)Cc2ccccc2C1=O,13%,0%,-13%,24%,3.5%,-16%,15%,18%
CCOC(=O)N1CCc2c(sc3c2C(=O)NC(c2ccccc2)N3)C1 (stereo unspecified),6%[57.1 µM],-22%,x,-1%,1.5%,-5%[57.1 µM],0%,-16%
Cc1ccc(NC(=O)Nc2nnc(N(C)Cc3ccccc3)s2)cc1,-1%,6%,-10%,12%,0.5%,13%,-11%,4%
C/C(=N\NC(=O)CC#N)c1cc2ccc(O)cc2oc1=O,183%[activator][57.1 µM],-3%,0%,-8%,5.4%,52%[activator][57.1 µM],-10%,-35%
C/C(=N/NC(=O)c1ccncc1)c1cc2ccc(O)cc2oc1=O,360%[activator],-7%,-1%,-1%,3.8%,23%,-13%,-15%
FC(F)(F)c1ccccc1NC(=S)N1CCCCCC1,5%,1%,0%,-7%,-1.7%,27%,3%,-6%
CCCN(CC)c1ncnc2[nH]ncc12,10%[57.1 µM],1%,-5%,-7%,x,24%[57.1 µM],11%,9%
COCCNC(=S)N1CCN(C(=O)C(=O)Nc2ccc(C(=O)OC)cc2)CC1,-7%,-7%,-21%,10%,-0.6%,-8%,-27%,0%
O=C1OC(c2cccs2)=N/C1=C\c1ccc(-c2cccc(Cl)c2)o1,-8%,0%,u,u,-0.8%,-18%,-1%,-5%
CCOc1ccc(-n2c(/C=C/c3cccc(F)c3)nc3cc(OC)c(OC)cc3c2=O)cc1,-1%[57.1 µM],5%,-8%,13%,5.1%,-15%[57.1 µM],7%,-11%
CCOc1ccc(NC(=O)/C(C#N)=C\c2ccc(-c3ccc(Cl)cc3)o2)cc1,-11%,0%,0%,u,-3.0%,-2%,-25%,4%
COC(=O)CCC(=O)OC1(C)C(=O)C=C2C=C(C3CC3)N(C(CO)CO)C=C2C1=O (stereo unspecified),-7%[57.1 µM],0%,1%,10%,0.0%,-10%[57.1 µM],-1%,25%
CCc1ccc(CCC(=O)Nc2nc(CC(C)=O)ns2)o1,2%,0%,0%,-1%,1.4%,u,-11%,-7%
CC(C(=O)NC(C)(C)C)N(Cc1cccs1)C(=O)CCN1CCc2ccccc21 (stereo unspecified),-4%[57.1 µM],-2%,0%,2%,-0.6%,6%[57.1 µM],6%,-12%
COc1ccc(/C=C2\N=C(C)N(c3ccc(C(=O)O)cc3)C2=O)cc1OC,0%,-2%,4%,0%,0.6%,7%,-3%,-2%
Cc1sc(NC(=O)C2CC(Cl)=CCC2C(=O)O)c(C#N)c1C (stereo unspecified),-5%,-6%,u,0%,5.3%,-11%,u,-18%
CCN(CC)c1ccc2oc(=O)c(C)nc2c1,-11%,u,16%,14%,1.8%,-15%,u,u
COCC(C)NC(=O)C(C)N1c2cccc3cccc(c23)S1(=O)=O (stereo unspecified),10%[57.1 µM],-1%,-23%,9%,2.8%,-17%,7%,-8%

(listing goes on)
canonical_smiles,TrxR1 substrate,Vif-APOBEC3G blk,12-LOX inh,IDH1 R132H inh,RXFP1 agonist,rTrxR1 inhibitor,Vif-APOBEC3F blk,RGS4 inhibitor
Cc1c(-c2ccccc2)[nH]n2c(=O)c3c(nc12)CCCC3,12%,-8%,-9%,5%,2.8%,-4%,1%,-14%
Cc1ccccc1N1C(=O)Cc2ccccc2C1=O,5%,3%,-8%,-4%,3.1%,u,-6%,22%
CC(c1ccccc1)C1CC(=O)N(CC(=O)O)C1=O (stereo unspecified),8%,0%,-19%,5%,0.6%,15%,-5%,12%
CC1=C(C(=O)Nc2ccccc2)C(c2ccncc2)n2nnnc2N1 (stereo unspecified),-8%,-1%,-14%,5%,1.1%,-17%,4%,-14%
Cc1ccc(C(N)=O)cc1S(=O)(=O)Nc1cccc(C)c1C,6%[57.1 µM],-4%,17%,1%,-0.3%,2%[57.1 µM],2%,0%
Cc1ccc(C(=O)Nc2ccc(-c3csc(C)n3)cc2)cc1,20%[57.1 µM],-5%,-12%,11%,2.7%,8%[57.1 µM],1%,19%
Cc1[nH]n2c(=O)c3c(nc2c1-c1ccccc1)CCCC3,3%,0%,1%,1%,-0.6%,7%,0%,-16%
CCOC(=O)c1cc(C#N)c(N2CCN(C)CC2)nc1-c1ccccc1,0%[57.1 µM],3%,-8%,1%,-0.7%,12%[57.1 µM],-1%,-8%
Cc1ccoc1C(=O)NCCCNC(=O)c1occc1C,6%,0%,0%,11%,0.5%,u,x,u
C/C(=N\NC(=O)CC#N)c1cc2ccccc2oc1=O,14%,0%,16%,5%,0.7%,22%,1%,-31%
CCOC(=O)c1cccc(-c2c(-c3ccccc3)ncc3cc(OC)c(OC)cc23)c1,10%[57.1 µM],-1%,-24%,-30%,3.3%,14%,-5%,-6%
COC(=O)c1cc2nc(-c3ccccc3)cc(C(F)(F)F)n2n1,17%,-5%,-5%,-1%,1.5%,17%,-1%,-20%
CCN1/C(=C\C(=S)Nc2ccccc2)Sc2ccccc21,-6%[57.1 µM],2%,32µM*,3%,2.0%,17%[57.1 µM],-6%,-36%
Cc1nc(-c2ccc(C(=O)O)cc2)cs1,8%,3%,0%,3%,3.5%,12%,-10%,-12%
CCCCOc1ccccc1-c1cc(C(=O)O)[nH]n1,13%[57.1 µM],-3%,16%,1%,0.2%,10%[57.1 µM],1%,38%
COc1ccc(CN2CCNC(=O)C2CC(=O)NCCC2=CCCCC2)cc1OC (stereo unspecified),-5%,2%,-2%,1%,0.1%,-10%,9%,-18%
COc1ccc(CCNc2ncnc3sccc23)cc1OC,-7%,-8%,-6%,-1%,-0.9%,11%[57.1 µM],-5%,-1%
CCOCCCNC(=S)N1CCN(C(=O)C(=O)Nc2ccc(C(=O)OC)cc2)CC1,-7%,1%,-16%,-9%,1.6%,-10%,-16%,-1%
CCOC(=O)c1cc(C#N)c(Oc2ccccc2OC)nc1-c1ccccc1,6%[57.1 µM],-1%,11%,1%,-0.1%,7%[57.1 µM],-1%,-15%
Cc1c(N=C2N=C(NC(=O)NC(C)(C)C)c3ccccc32)c(=O)n(-c2ccccc2)n1C,-3%,0%,u,-5%,0.0%,19%,5%,-9%

Other entries follow.
canonical_smiles,TrxR1 substrate,Vif-APOBEC3G blk,12-LOX inh,IDH1 R132H inh,RXFP1 agonist,rTrxR1 inhibitor,Vif-APOBEC3F blk,RGS4 inhibitor
C[C@H](NC(=O)c1nc[nH]c1C(=O)NC1CCN(C(=O)OC(C)(C)C)CC1)C(=O)OCc1ccccc1,-7%,0%,5%,3%,0.4%,0%,1%,-24%
CCOC(=O)C1CCN(C(=O)NC23CC4CC(CC(C4)C2)C3)CC1,2%,0%,6%[57.4 µM],0%,-0.3%,17%,7%,6%
CC(=O)Nc1nc2n(n1)C(c1ccccc1)C=C(c1ccccc1)N2 (stereo unspecified),84%[activator],-3%,13%,5%,7.9%,40µM*,-8%,-17%
Fc1cccc(Cl)c1CSc1ncn[nH]1,14%,-6%,-22%,7%,2.2%,33%,-5%,-34%
O=C(CCC(=O)N1CCOc2ccccc21)NCc1cccs1,15%,-1%,10%,1%,u,21%,-2%,-12%
O=C(CCC(=O)N1CCOc2ccccc21)NCCc1ccccc1,12%[57.1 µM],-1%,12%,7%,0.2%,47%,4%,-1%
COc1ccc(C2C=C(c3ccc(Cl)cc3)Nc3nc(NC(=O)CCC(=O)O)nn32)cc1 (stereo unspecified),16%,-2%,4%,0%,u,6%,-7%,-3%
COc1ccc(CN2C(=O)c3ccccc3C2=O)cc1C(=O)Nc1ccccc1N1CCOCC1,1%[57.1 µM],0%,-7%,10%,0.8%,18%[57.1 µM],-20%,7%
CC(=O)c1cc(C#N)c(N2CCCCC2)nc1C,-6%,-6%,-12%,1%,6.6%,-2%,-4%,-8%
COC(=O)Oc1ccc(/C=N/NC(=O)CSCc2ccccc2Br)cc1OC,7%[57.1 µM],-6%,0%,5%,1.9%,2%[57.1 µM],-1%,-8%
COc1cc(Br)c(CC(=O)NNC(=O)c2ccc(F)cc2)cc1OC,6%[57.1 µM],-2%,-21%,12%,x,3%[57.1 µM],-5%,20%
COC(=O)c1ccc(-c2c(-c3ccccc3)ncc3cc(OC)c(OC)cc23)cc1,7%[57.1 µM],2%,-14%,40µM*,-1.4%,46%[activator],-4%,-4%
O=C(NCc1ccco1)C1(S(=O)(=O)c2ccc(Cl)cc2)CC1,-6%,2%,-16%,5%,-2.4%,-12%,-5%,9%
O=C(Nc1ccc(NC(=O)c2ccccc2F)cc1)c1cccs1,10%,-6%,0%,-1%,3.9%,35%,0%,-31%
Cc1[nH]c(=O)[nH]c(=O)c1S(=O)(=O)Nc1cccc(C(F)(F)F)c1,5%,0%,0%,1%,-1.8%,20%,-9%,9%
COn1c2c(c3c4nonc4ccc31)CCCC2,u,-1%,u,17%,7.0%,u,-6%,-33%
O=C(OCC(=O)N1CCN(S(=O)(=O)c2ccc(Cl)cc2)CC1)c1cccc(OC(F)F)c1,-1%,1%,12%,2%,0.3%,13%,-23%,-2%
Cc1cc(C)c(S(=O)(=O)Nc2cccc(/C=C/C(=O)O)c2)c(C)c1,5%,-2%,5%,5%,0.8%,1%[57.1 µM],-1%,11%
